# High-throughput results deposited in PubChem by several laboratories.
# Mtb hypoxia inh: PubChem AID 1159583; 300,000 tested, 0.1% active; fluorescence inhibition, % (concentration not given with the values); M. tuberculosis hypoxia-regulated fluorescent reporter, fluorescence;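 active = 35 to 45% if threefold the growth effect, above 45% if 1.5-fold the growth effect; inactive = the rest, general growth blockers included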;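 also: wells of about 50 µL received 100 nL stock; 0% = vehicle wells and 100% = reference inhibitor wells; whole bacteria with a GFP reporter of the hypoxia response; strong numbers were not always called active; many hits fall short of the cut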
# BJeLR lethal: MLPCN primary cell-based screen for lethality selective to Ras in HRASV12 cells; AID 1554, 2009; inhibition, % (no concentration beside the values); 300,000 tested, 0.17% active; BJeLR (HRASV12) viability, CellTiter-Glo ATP luminescence, 48 h; reference of the scale not given here;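 active = replicate mean above 50%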;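 also: 50 nL library stock added to about 25 µL; numbers are from one replicate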
# PrP 5UTR inh: inhibition of PrP 5' UTR reporter expression. cell-based PrP 5' UTR mRNA reporter, plate reader. inhibition, % (concentration not given with the values). 340,000 tested, 0.35% active. AID 488862, 2010;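 active = every replicate at 50% or more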;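 also: 0 = median of the neutral control wells; tested in H4 reporter cells; numbers are from one replicate; inactives centre near -14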
# Sa RN4220 lethal: growth inhibition of S. aureus RN4220, primary screen, OD600; 16 h; inhibition, % (concentration not given with the values); 330,000 tested, 0.33% active; AID 1259311, 2017;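 active = z-score of -3 or lower and OD600 up to 0.18 on both plates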;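 also: plate controls were untreated cells for no effect and reference antibiotic for full effect; stock transfer was 100 nL into about 80 µL; one replicate is shown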
# Autofluor counter: compound fluorescence in toxin protease inhibitor counterscreen; compound autofluorescence counterscreen, microsphere flow cytometry; stronger effect = higher value; fluorescence intensity (concentration not given with the values); 360,000 tested, 3.1% active;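 active = at least 3 SD above the mean of all compounds, about 16000 in these data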;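 also: 100 nL of 1 mM stock went into each well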
# Sa ugtP lethal: growth inhibition of ugtP-null S. aureus, primary screen, RN4220 ugtP deletion, OD600; 16 h; some inactives read as strong as hits; growth inhibition, % (concentration not given with the values); 330,000 tested, 0.54% active;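 active = z-score under -3 and OD600 up to 0.15 on both plates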;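 also: plate controls were untreated wells for no effect and antibiotic for full effect; wells of about 80 µL received 100 nL stock; the first replicate is given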
# Mtb hypoxia inh growth: further read-out of Mtb hypoxia inh, marked with its call; growth inhibition, %; measured here: M. tuberculosis growth (absorbance);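 0% = vehicle and 100% = reference antibiotic; read after six days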
# The depositor's hits bear a star; . = not tested or not shown; & = joins results of further samples.
# Results follow in this order: Mtb hypoxia inh	Mtb hypoxia inh growth	BJeLR lethal	PrP 5UTR inh	Sa RN4220 lethal	Autofluor counter	Sa ugtP lethal
- Cc1ccc(CN(C)C2CCN(C)CC2)cc1
    8	10	6	-19	0.8	4399	7
- CCc1ccc(-c2csc3ncn(CC(=O)NCc4ccco4)c(=O)c23)cc1
    6	2	6	-5	-2.2	4192	12
- N/C(=N\c1nc(CSc2ccc(Cl)cc2)cc(=O)[nH]1)Nc1ccccc1C(F)(F)F
    9	4	2	-22	-0.6	3072	-13
- Cc1cc(NC(=O)CCCn2nc([N+](=O)[O-])c(Cl)c2C)no1
    2	4	4	0	1.9	3624	2
- CCN(CC)CCCn1c(=S)[nH]c2cc(Cl)ccc2c1=O
    8	9	-9	-16	0.3	10574	-20
- O=C(O)c1cccc(Oc2cccc(Cl)n2)c1
    0	2	-3	2	-1.0	3538	4
- Cn1cnnc1SCC(=O)NN(c1ccccc1)c1ccccc1
    2	-1	7	-14	0.3	2319	14
- Cc1ccc(N2CC(C(=O)Nc3ncc([N+](=O)[O-])s3)CC2=O)cc1 (stereo not given)
    10	24	3	-11	26	6242	11
- Cc1cccc(N2CCN(C3=NC(=O)/C(=C\c4cn[nH]c4-c4ccccc4)S3)CC2)c1
    4	7	-2	1	-2.5	2475	5
- CN1c2ccsc2C(=NNc2ccc(F)cc2)CS1(=O)=O
    -3	8	.	.	83	.	100*

# Fetched by structure from above:
# Results follow in this order: Mtb hypoxia inh	Mtb hypoxia inh growth	BJeLR lethal	PrP 5UTR inh	Sa RN4220 lethal	Autofluor counter	Sa ugtP lethal
- CN1c2ccsc2C(=NNc2ccc(F)cc2)CS1(=O)=O
    -3	8	.	.	83	.	100*
- Cc1cc(NC(=O)CCCn2nc([N+](=O)[O-])c(Cl)c2C)no1
    2	4	4	0	1.9	3624	2
- CCN(CC)CCCn1c(=S)[nH]c2cc(Cl)ccc2c1=O
    8	9	-9	-16	0.3	10574	-20
- O=C(O)c1cccc(Oc2cccc(Cl)n2)c1
    0	2	-3	2	-1.0	3538	4
- Cc1ccc(N2CC(C(=O)Nc3ncc([N+](=O)[O-])s3)CC2=O)cc1 (stereo not given)
    10	24	3	-11	26	6242	11

# Next part:
# Results follow in this order: Mtb hypoxia inh	Mtb hypoxia inh growth	BJeLR lethal	PrP 5UTR inh	Sa RN4220 lethal	Autofluor counter	Sa ugtP lethal
- O=C(O)c1ccccc1C(=O)Nn1cnnc1
    -3	1	-2	-13	0.6	3887	1
- O=C(CCCN1C(=O)c2ccccc2C1=O)NCCN1C(=O)S/C(=C\c2cccs2)C1=O
    7	5	-14	-13	4.5	2209	7
- COc1ccccc1NC(=O)COC(=O)/C=C/c1ccc(OC)c(OC)c1
    -2	2	.	-9	1.6	5155	3
- O=C(O)c1cccc(S(=O)(=O)Nc2cc(Cl)ccc2Cl)c1
    9	0	3	-20	14	4460	10
- COc1ccc2cc(C(=O)C3CCCN(Cc4ccccn4)C3)ccc2c1 (stereo not given)
    5	17	0	-11	9.7	5059	4
- O=C(NCCCl)NNC(=O)c1cc2ccccc2cc1O
    -8	-7	-13	-15	0.3	.	0
- CCOc1ccc(C(=O)c2nc3c(n2O)CCCCC3)cc1
    .	.	15	-7	5.2	3949	7
- Cc1nnc(SC(C)C(=O)Nc2ccc3c(c2)OCCO3)s1 (stereo not given)
    12	9	0	-72	6.5	7878	7
- O=C(NCc1ccccc1)c1cccc(S(=O)(=O)N2CCCCC2)c1
    2	3	-10	-15	4.3	5940	10
- COc1cccc(-c2cc(C(=O)N3CCN(c4ncccn4)CC3)c3ccccc3n2)c1
    -7	-7	1	-36	-12	3136	-5

# Single records (already shown):
# Entry for Cc1nnc(SC(C)C(=O)Nc2ccc3c(c2)OCCO3)s1 (stereo not given) = Mtb hypoxia inh = 12; Mtb hypoxia inh growth = 9; BJeLR lethal = 0; PrP 5UTR inh = -72; Sa RN4220 lethal = 6.5; Autofluor counter = 7878; Sa ugtP lethal = 7
# Entry for O=C(NCCCl)NNC(=O)c1cc2ccccc2cc1O = Mtb hypoxia inh = -8; Mtb hypoxia inh growth = -7; BJeLR lethal = -13; PrP 5UTR inh = -15; Sa RN4220 lethal = 0.3; Autofluor counter = .; Sa ugtP lethal = 0

# (list continues)
# Results follow in this order: Mtb hypoxia inh	Mtb hypoxia inh growth	BJeLR lethal	PrP 5UTR inh	Sa RN4220 lethal	Autofluor counter	Sa ugtP lethal
- COc1cc(C(=O)NCC2CCCO2)ccc1OCc1ccccc1 (stereo not given)
    6	-2	-11	-15	5.6	4465	17
- COc1cccc(N2C(=O)CC(N3CCC(c4nc5ccccc5[nH]4)CC3)C2=O)c1 (stereo not given)
    -8	4	-7	-25	1.8	8593	2
- CCCC(=O)Nc1ccc(Cl)c(NC(=O)c2ccc(Br)o2)c1
    -1	7	8	-10	1.5	8880	0
- O=C(OCc1ccccc1)N1CCC2CC1c1c(Cl)cccc12 (stereo not given)
    -8	5	.	-10	11	4097	9
- O=C(NCC(=O)N(c1cccnc1)C(C(=O)NC1CCCCC1)c1cccnc1)c1ccco1 (stereo not given)
    .	.	-8	3	2.1	4690	-2
- COc1ccc(NS(=O)(=O)c2cccc(C(=O)NCC(c3ccco3)N3CCCC3)c2)cc1 (stereo not given)
    3	11	-1	-7	2.0	5936	5
- COC(=O)c1nc(NC(=O)c2ccc(F)cc2)n[nH]1
    -8	5	13	-9	-0.5	3911	-9
- Cc1cc(C)c(C(=O)CSc2nc3ccccc3c(=O)[nH]2)cc1C
    2	5	14	-20	5.4	4376	13
- COc1ccccc1/C=C\C(=O)NCC(=O)N/N=C(\C)Cc1ccccc1
    .	.	-4	-10	.	4321	.
- CC(=O)Nc1ccccc1OCCOc1ccc(Br)cc1
    8	16	2	-13	1.2	4313	-5

# Of the compounds above, these contain an NH in an aromatic ring.
# Results follow in this order: Mtb hypoxia inh	Mtb hypoxia inh growth	BJeLR lethal	PrP 5UTR inh	Sa RN4220 lethal	Autofluor counter	Sa ugtP lethal
- N/C(=N\c1nc(CSc2ccc(Cl)cc2)cc(=O)[nH]1)Nc1ccccc1C(F)(F)F
    9	4	2	-22	-0.6	3072	-13
- CCN(CC)CCCn1c(=S)[nH]c2cc(Cl)ccc2c1=O
    8	9	-9	-16	0.3	10574	-20
- Cc1cccc(N2CCN(C3=NC(=O)/C(=C\c4cn[nH]c4-c4ccccc4)S3)CC2)c1
    4	7	-2	1	-2.5	2475	5
- COc1cccc(N2C(=O)CC(N3CCC(c4nc5ccccc5[nH]4)CC3)C2=O)c1 (stereo not given)
    -8	4	-7	-25	1.8	8593	2
- COC(=O)c1nc(NC(=O)c2ccc(F)cc2)n[nH]1
    -8	5	13	-9	-0.5	3911	-9
- Cc1cc(C)c(C(=O)CSc2nc3ccccc3c(=O)[nH]2)cc1C
    2	5	14	-20	5.4	4376	13

# New compounds follow
# Results follow in this order: Mtb hypoxia inh	Mtb hypoxia inh growth	BJeLR lethal	PrP 5UTR inh	Sa RN4220 lethal	Autofluor counter	Sa ugtP lethal
- CCOc1ccc(CC(=O)N/N=C(\C)c2cccnc2)cc1
    .	.	0	-18	.	4321	.
- CCOc1ccc2nc(SCC(=O)Nc3ccc(S(=O)(=O)N4CCCC4)cc3)c(C)cc2c1
    -9	2	13	-8	4.5	4974	15
- CCCCN(C)CCNC(=O)c1c[nH]c2ccc(S(=O)(=O)N(CC)CC)cc2c1=O
    1	1	-1	4	5.3	20963*	3
- COc1cc(OCc2ccccc2)c(OC)c(OCc2ccccc2)c1
    15	12	.	-19	2.3	3389	19
- Cc1cc(NC(=O)CCC(=O)N(c2cccc(F)c2)C(C(=O)NC2CCCC2)c2ccncc2)no1 (stereo not given)
    .	.	-1	-12	9.7	4213	6
- COC(=O)Nc1ccc(S(=O)(=O)N2CCC(C(=O)NC3CCCCC3)CC2)cc1
    -7	5	0	-7	1.7	8172	4
- CC1CCCCC12NC(=O)N(CC(=O)Nc1ccc(Cl)c(S(=O)(=O)N3CCOCC3)c1)C2=O (stereo not given)
    10	0	.	-9	-5.2	6591	-19
- Cc1ccc(NC(=O)C2(c3ccccc3)CCOCC2)c([N+](=O)[O-])c1
    18	9	3	-18	5.5	1984	2
- O=C1CCC(=O)N1CC1CC2CCC1C2 (stereo not given)
    -10	4	-7	13	-0.7	3561	0
- Cc1cccc(-c2nnc3sc(-c4ccccc4)nn23)c1
    10	2	5	-49	9.0	9581	-3
- COc1ccc(NC(=O)N2CCCc3cccc(C)c32)cc1
    -1	2	2	-43	1.4	6143	-2
- C[C@@H](NC(=O)Cn1ccc(N)nc1=O)c1cccc2ccccc12
    -4	-6	.	-6	21	3052	14
- C/C(=C\C(=O)c1ccc(Cl)cc1Cl)N(C)C
    7	5	6	-4	3.8	4629	3
- CC(=NNC(=O)c1ccc(Cl)cc1)c1cccnc1
    6	-4	.	.	2.1	.	5
- COC(C[C@H]1O[C@@H]1[C@H](O)[C@H](C)OCc1ccccc1)OC
    .	.	1	-3	.	4064	.
- O=C(O)C1CCN(Cc2ccccn2)CC1
    2	6	-2	-10	6.5	4615	-3
- C=CCn1c(Cc2csc(N)n2)nnc1SCC(=O)OCC
    6	8	2	-9	4.7	22718*	13
- O=C(NC1CC1)C1Nc2ccc(OC(F)(F)F)cc2C2C=CCC12 (stereo not given)
    21	7	-5	-13	2.2	3487	5
- C1CCCCCC(NCCN2CCNCC2)CCCCC1
    19	20	25	3	1.6	6181	3
- CCc1[nH]nc(C(=O)NN=Cc2ccncc2)c1C
    -1	-8	.	.	-1.4	.	1
- COc1ccc(CCN(C)C(=O)CSc2nccn2C)cc1OC
    4	9	.	22	2.4	19523*	-7
- O=C(Cc1ccccc1[N+](=O)[O-])N1CCOCC1
    20	7	-4	-22	5.2	.	11
- Cc1cc(NC(=O)COC(=O)[C@@H]2CCCN2C(=O)c2cccs2)no1
    4	9	.	3	2.3	3757	4
- CCC(=O)NC(=S)Nc1ccc(NC(=S)NC(=O)c2ccccc2)cc1
    .	.	-8	-38	4.6	2231	74
- CC(C)C1C(C#N)=C(N)Oc2n[nH]c(-c3ccc4ccccc4c3)c21 (stereo not given)
    -6	-7	2	-14	6.3	8154	-32
- Cc1oc(-c2cccs2)nc1CS(=O)CC(=O)NCCc1ccccc1 (stereo not given)
    1	5	-1	-28	23	4707	23
- O=C(Cc1ccccc1)NCC(=O)OC(c1ccccc1)c1ccccc1
    20	10	-2	-11	-2.8	1917	31
- C/C(C=NNC(=O)c1cc(C(C)C)[nH]n1)=C\c1ccccc1
    2	5	.	.	1.2	.	0
- Cc1onc(-c2c(F)cccc2Cl)c1C(=O)Nc1nccs1
    -8	-11	5	-14	2.9	1937	-1
- CC1CC2C3CCC4=CC(=O)C=C[C@]4(C)[C@@]3(F)C(O)C[C@]2(C)[C@@]1(O)C(=O)COP(=O)(O)O (stereo not given in full)
    12	0	.	.	7.9	.	8
- COc1ccc(N2CCN(CCCNC(=O)C(=O)c3c[nH]c4ccccc34)CC2)cc1
    0	7	-4	-14	3.7	5466	8
- COc1ccccc1CC(NC(C)=O)C(=O)NC1CCN(C(=O)NCc2ccccc2)CC1 (stereo not given)
    15	0	-9	-23	3.0	4011	6
- CCOc1ccc(CN(C)C(=O)[C@H](C)NC(=O)c2ccco2)cc1OC
    9	-1	-11	-30	4.2	3370	15
- CCOc1cc(C=NNC(=O)c2nnn(-c3nonc3N)c2C)ccc1OCc1cccc(F)c1
    5	6	.	.	3.1	.	-21
- COc1cc(/C=N/NC(=O)c2ccncc2)ccc1O
    .	.	-5&0	-13&-14	.	5601&5355	.
- COc1ccc(C2=NOC(Cn3nc(-c4ccccc4)cc3C(=O)NCc3ccccc3OC)C2)cc1 (stereo not given)
    6	0	.	-20	5.1	5195	6
- CCCSc1ccc(C2C3C(=O)N(C)C(=O)C3[C@]3(C(=O)OC)CCCN23)cc1OC (stereo not given in full)
    3	1	.	.	2.9	.	2
- CC(Nc1cc(N2CCNCC2)ccc1[N+](=O)[O-])c1ccccc1 (stereo not given)
    8	10	-17	-8	-4.5	2230	-6
- CCCCN(C)S(=O)(=O)c1ccc(C(=O)N(CCN(C)C)c2nc3ccc(C)cc3s2)cc1
    17	4	1	-28	2.1	2584	8
